Source: PubChem
TRPV1 PAM = potentiators of human vanilloid receptor 1 (TRPV1). hit rate 0.02% among 320,000. TRPV1-expressing cells, Fluo-8 calcium influx, capsaicin EC20 potentiation; host cell line not named in the record; control for the full effect not named in the record. potentiation, % at 8.33 µM; active means potentiation above 80%; inconclusive means 30% to 80%; inactive means below 30%; further: 0% is about no effect
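TRPV1-expressing cells were cultured overnight at 35.5C and loaded with Fluo-8 calcium dye for 40 to 90 min at room temperature. After a 10 s baseline, compound was added and calcium influx was read kinetically for 3 min (ex 480/em 520 nm).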
Sfp PPTase inh = blocks B. subtilis Sfp PPTase activity; Potency, µM, inactives show max response, negative = inhibition, hits mostly inhibitors; AID 1490; Biochemical Sfp PPTase activity, qHTS; Q9F4F7; hit rate 3.5% among 310,000; active means well fitted inhibition curve with a large enough effect; inconclusive means small, poorly fitted or top-dose-only effect, or another doubt; inactive means no such curve, though single readings can be large or run the other way;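 further: the enzyme is Sfp with the accession as filed and its product quenches rhodamine fluorescence; potency means the concentration at half of the fitted maximal effect; 0% = enzyme reaction without inhibitor and -100% = no enzyme wells; top concentration of the series not given in the record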
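Fluorescence-quenching assay with 15 nM Sfp, 5 uM rhodamine-CoA and 12.5 uM BHQ-2-labelled ybbR peptide in pH 7.6 Hepes/MgCl2 buffer. Enzyme was pre-incubated with compound for 15 min at room temperature. Rate was taken from the 30-min fluorescence change (525/598 nm).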
CtBP-E1A inh = inhibitors of CtBP/E1A interaction | AID 651724 | hit rate 0.49% among 340,000 | AlphaScreen GST-E1A/His-CtBP binding, 1536-well; stronger effect = lower value; control for the full effect not named in the record | activity change, % (concentration not given with the values); in the data active means activity change below about -65%; inconclusive means about -30% to -65%; inactive means above about -30%; further: on the % scale 0 is the no-effect control and ±100 the full control effect
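Steps: dispense buffer (Tris pH 8.0, NaCl 300 mM, TCEP 1 mM, BSA, Tween 20); add 5X protein mix (GST-E1A, His-CtBP, 125 nM each); pin 23 nL compound; 2 h at 37 °C, dark; add 5X beads (50 ug/mL); 1 h; read.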
D2 agonist = activates the human D2 dopamine receptor | P14416 | hit rate 0.084% among 360,000 | AID 624465 | activation, % (no concentration beside the values) | DiscoveRx PathHunter D2 beta-arrestin, luminescence, 90 min; 100% = 57 uM dopamine signal; in the data active = activation above about 40%; inconclusive = about 15% to 40%; inactive = below about 15%; further: compound concentration not given in the record; the text of the record calls up to 30% inactive
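DiscoveRx PathHunter D2 beta-arrestin cells (2,100/well) attached overnight, then compound-stimulated 90 min at 37 C in HBSS/10 mM HEPES/0.1% Tween-20 buffer; beta-galactosidase complementation read by luminescence after 1 h at ambient temperature. Dopamine 57 uM final (EC100) as control.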
PINK1 expr mod = changes PINK1 expression. PINK1 immunofluorescence, high-content cytometry, 24 h. Potency, µM (series often up to 76.6 µM), inactives show top-dose activation (PINK1 increase), hits mostly activators. hit rate 0.2% among 410,000. AID 624263; active = well fitted activation curve with a large enough effect; inconclusive = small, poorly fitted or top-dose-only effect; inactive = flat fitted curve, though single readings scatter; cell line not stated here;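 further: potency means the concentration at half of the fitted maximal effect; % of control where 0% means no effect; nearly all actives have a fitted effect of over 65% in size; a mitochondrial uncoupler was the plate control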
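PINK1 protein level read as immunofluorescence by microplate cytometer in a fixed, stained stable cell line after 24 h exposure to five compound concentrations, with CCCP as control.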
D2 potentiator = positive allosteric modulators of human D2 dopamine receptor; DiscoveRx D2 beta-arrestin cells, luminescence, 90 min; 100% = 57 uM dopamine signal; hit rate 0.23% among 360,000; potentiation, % (no concentration beside the values); active = potentiation of 50% or more; inconclusive = 30% to 50%; inactive = 30% or less;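 further: compound concentration not given in the record; tested on top of an EC20 dose of dopamine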
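D2 cells co-treated with compound plus 50 nM dopamine (EC20) for 90 min at 37 deg C to detect potentiation. Beta-arrestin recruitment was read as enzyme-fragment luminescence after 1 h at ambient temperature. Full response was set by 57 uM dopamine.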
Six1-Eya2 inh = Six1/Eya2 interaction inhibition; hit rate 0.56% among 360,000; AlphaScreen GST-Six1/His-Eya2 binding, biochemical; stronger effect = lower value; control for the full effect not named in the record; activity change, % (test concentration not listed); AID 651725; in the data active = activity change below about -65%; inconclusive = about -30% to -65%; inactive = above about -30%; further: on the % scale 0 is the no-effect control and ±100 the full control effect; compound concentration not given in the record
Target sequence (O00167 whole entry, looked up): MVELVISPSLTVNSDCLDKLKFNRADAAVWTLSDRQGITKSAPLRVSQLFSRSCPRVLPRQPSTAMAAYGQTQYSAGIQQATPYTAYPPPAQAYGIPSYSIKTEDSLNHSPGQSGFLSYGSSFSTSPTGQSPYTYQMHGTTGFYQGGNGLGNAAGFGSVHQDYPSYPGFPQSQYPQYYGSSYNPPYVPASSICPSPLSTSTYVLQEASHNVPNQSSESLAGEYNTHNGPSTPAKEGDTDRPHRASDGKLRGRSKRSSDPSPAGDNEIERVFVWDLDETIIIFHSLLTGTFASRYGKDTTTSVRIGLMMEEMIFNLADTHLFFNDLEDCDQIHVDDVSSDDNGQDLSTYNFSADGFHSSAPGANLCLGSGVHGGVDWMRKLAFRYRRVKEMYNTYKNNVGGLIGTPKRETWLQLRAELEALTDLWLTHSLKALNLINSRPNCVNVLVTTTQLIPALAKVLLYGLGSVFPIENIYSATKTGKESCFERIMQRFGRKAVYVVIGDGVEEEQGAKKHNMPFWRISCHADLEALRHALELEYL
Target sequence (Q15475 whole entry, looked up): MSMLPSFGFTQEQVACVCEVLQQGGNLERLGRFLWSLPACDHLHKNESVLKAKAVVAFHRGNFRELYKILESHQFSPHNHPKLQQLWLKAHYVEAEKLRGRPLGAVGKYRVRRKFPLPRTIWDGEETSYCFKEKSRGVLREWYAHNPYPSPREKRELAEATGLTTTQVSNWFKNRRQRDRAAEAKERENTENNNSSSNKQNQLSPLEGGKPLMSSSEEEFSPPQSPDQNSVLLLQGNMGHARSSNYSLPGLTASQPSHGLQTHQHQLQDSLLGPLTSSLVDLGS
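Homogeneous AlphaScreen proximity assay pairing GST-Six1 with His-tagged Eya2 (added as 5X mix: 250 nM and 500 nM) in 50 mM Tris pH 8.0, 300 mM NaCl, 1 mM TCEP. Glutathione donor and nickel acceptor beads; 1 h, 37 °C, dark.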
An asterisk follows results filed as active; ? = inconclusive; . = not tested or not shown; [ ] = dose if it differs, or a comment.

SMILES	TRPV1 PAM	Sfp PPTase inh	CtBP-E1A inh	D2 agonist	PINK1 expr mod	D2 potentiator	Six1-Eya2 inh
Cc1cc(C)c(C#N)c(OCc2ccc(Cl)nc2)n1	2	0%	4	-1.1	-0.3%	-7	8
O=C(O)c1cc2n(n1)C(C(F)(F)F)CC(C1CC1)N2 (stereo not given)	0	2%	8	-3.9	1.0%	2	0
O=C(NCCCc1ccccc1)C1CCC(=O)N(CCc2ccc(Cl)cc2)C1 (stereo not given)	-2	7%	-4	0.5	0.2%	-2	1
CCOC(=O)CNC(=O)Cn1cnc2c(nnn2-c2cccc(Cl)c2)c1=O	-10	18%	0	-1.9	4.7%[38.3 µM]	-1	-2
CCOc1ccc(S(=O)(=O)N(CC(N)=O)c2ccc(C)cc2)cc1	-7	17%	12	-1.2	4.0%	-7	2
COc1cccc(/C=C2\SC(=O)N(CCC(=O)NCCCn3ccnc3)C2=O)c1	9	16%	-1	-1.6	1.0%	-1	-2
CC[C@@H]1C(=O)[C@H](Cc2ccccc2)[C@H]2CCCC(=O)N3CC[C@@H]1[C@@H]23	.	.	6	0.8	0.9%	-7	6
CCOc1ccc(-c2cn(-c3ccccc3OC)c(=S)[nH]2)cc1	4	3%	-2	1.4	?	0	-6
OCCN1CCN(c2ncnc3c2ncn3[C@H]2CN(Cc3ccco3)C[C@@H](CO)O2)CC1	.	.	4	2.2	0.8%	-13	1
COC(=O)c1ccc[n+](CC(=O)Nc2ccc(OC(F)F)cc2)c1	3	5%	0	4.3	1.0%	-4	-3
O=C(Nc1ccnn1C1CCN(Cc2ccn[nH]2)CC1)c1ccccc1	10	10%	0	-5.0	-0.6%	-25	24
COc1cc(C=O)ccc1OCCSc1ccc(Cl)cc1	-5	-10%	37	-2.3	-1.0%[38.3 µM]	-5	23
O=C1CC(C(=O)N2CCN(c3ccccc3O)CC2)CN1Cc1ccccc1 (stereo not given)	-12	.	7	-3.7	-0.1%	-7	-1
Cc1cc(C)c2cc(C(=O)N3CCC(N4CCCCC4)CC3)[nH]c2c1	8	10%	-1	-0.6	0.5%	-5	-3
COc1ccccc1CCC(=O)Nc1ccc(S(=O)(=O)Nc2ncccn2)cc1	.	.	1	-2.2	-0.2%	-10	-3
CC(NC(=O)Cc1ccc(S(=O)(=O)N2CCOCC2)s1)c1ccc(Br)cc1 (stereo not given)	.	.	7	-1.8	4.7%	-6	1
CCOC(=O)c1cc(NC(=O)Nc2ccccn2)c(C)nc1C	4	8%	0	-1.9	0.3%	-1	-10
CC(=O)Nc1ccc(NC(=O)CCN2C(=O)c3ccccc3C2=O)cc1	1	3%	7	-5.4	1.1%	-3	-10
COC(=O)c1cc(-c2ccc(C)o2)nc2ccccc12	-5	11µM*	-9	-3.5	1.6%	-25	15
CC(=O)Nc1cccc(-c2csc(C(C)(NC(C)=O)c3ccccc3)n2)c1 (stereo not given)	.	.	2	-4.8	3.3%	-11	3
COC(=O)c1c(NC(NC(=O)C(C)C)C(Cl)(Cl)Cl)sc2c1CCCC2 (stereo not given)	-1	-8%	1	-0.3	1.0%	0	-2
Cc1c(S(=O)(=O)N2CCN(c3ccc(F)cc3)CC2)c(=O)n(C)c(=O)n1C	?	-4%	0	-0.7	-2.3%	-14	8
Cn1c(=O)c2c(nc(NCc3cccnc3)n2Cc2ccc(Cl)cc2)n(C)c1=O	5	11%	-2	1.2	-1.3%	-23	-6
N/C(=N\NC(=O)Nc1ccc(Cl)cc1)c1ccccn1	-40	-20%	-76*	-0.4	8.2%	-7	?
CN(C(=O)c1ccc(NC(=O)Cc2cccc(NC(=O)C3CCN(C(=O)C4CCC4)CC3)c2)cc1)C1CCCC1	-12	.	4	-0.7	3.1%	-12	0
COCCCNC(=O)CCc1nc(-c2ccccc2Cl)no1	-1	24%	2	-1.3	0.6%	-13	2
Cc1cc([N+](=O)[O-])ccc1N	5	.	0	-2.3	-0.4%	-35	0
Cc1ccc(NC(=O)COC(=O)Cc2cccs2)c(Br)c1	-16	11%	11	-1.2	1.0%	25	6
O=C(Nc1ccccc1)O/N=C/c1ccccc1Cl	7	-21%	2	-3.4	.	-19	5
CCOC(=O)c1c(NC(C)=O)sc2c1CCC(C=NCCCN(CC)CC)=C2Sc1ccccc1	.	.	-10	-4.4	0.7%	-18	-10
COc1ccc(CNc2nc(-c3cccnc3)nn2C(=O)c2ccco2)cc1	-8	?	-11	0.4	0.2%	-1	0
CC(=O)N1CCCc2cc(S(=O)(=O)NCc3ccc(C)cc3)ccc21	-7	4%	2	3.5	-0.1%	-3	5
Cc1ccc(/C=C(/C#N)c2nc(CCN3C(=O)c4ccccc4C3=O)cs2)cc1	-6	4%	5	-0.6	.	3	5
CN1C(=O)c2cccc3c(N(C)C)ccc(c23)C1=O	-9	7%	.	-5.1	-1.9%	-16	10
NNC(=O)CCCCCCCCCCOCCCCO	0	0%	1	5.0	0.3%	-2	7
COC(=O)c1ccccc1NC(=O)CSc1nnc(C(CO)NC(=O)c2ccccc2)n1C (stereo not given)	-1	18%	-6	-1.9	-0.1%[38.3 µM]	9	0
CC(=O)Nc1ccc(NC(=O)CCCn2cnc3ccccc3c2=O)cc1	-2	-11%	2	-1.4	1.2%	-4	4
O=C(NCc1ccon1)C1CCC(=O)N(CCc2ccc(Cl)cc2)C1 (stereo not given)	7	12%	-14	-1.0	-0.7%	-20	23
Cc1ccc(C(C)C)c(OCc2nn(CC(=O)c3ccc(Cl)cc3)c3[n+]2CCCCC3)c1	6	32µM*	0	-12	-1.3%	-23	0
O=C(NCCCN1CCOCC1)c1sc2cc(F)ccc2c1Cl	-14	10%	0	-3.4	-0.8%	-12	2
CN(Cc1ccc(F)cc1)C(=O)COc1ccccc1-c1ccccc1	-10	4%	21	0.1	1.4%	-15	14
COc1ccc(CCNC(=O)CN(Cc2ccc(Cl)cc2)S(C)(=O)=O)cc1OC	-7	16%	0	7.7	0.5%	-1	24
COc1cccc(C(=O)Nc2cc(C)ccc2NC(=O)COc2ccccc2)c1	-11	-5%	6	-1.6	5.3%	-12	4
CCCN(CC(=O)Nc1ccc(Cl)cc1Cl)C(=O)CC(NC(C)=O)c1ccccc1 (stereo not given)	-21	9%	0	-4.0	-3.4%	-48	3
O=C(Cc1ccccc1F)Nc1cccc(S(=O)(=O)N2CCOCC2)c1	.	.	-1	2.0	1.8%	-5	-10

Compound profiles, as listed above. Order of screens: TRPV1 PAM	Sfp PPTase inh	CtBP-E1A inh	D2 agonist	PINK1 expr mod	D2 potentiator	Six1-Eya2 inh
COc1cccc(C(=O)Nc2cc(C)ccc2NC(=O)COc2ccccc2)c1 across the screens: -11	-5%	6	-1.6	5.3%	-12	4
CC(=O)N1CCCc2cc(S(=O)(=O)NCc3ccc(C)cc3)ccc21 across the screens: -7	4%	2	3.5	-0.1%	-3	5
Cc1ccc(/C=C(/C#N)c2nc(CCN3C(=O)c4ccccc4C3=O)cs2)cc1 across the screens: -6	4%	5	-0.6	.	3	5

Four entries from above, sorted by heavy-atom count, smallest number first.
SMILES	TRPV1 PAM	Sfp PPTase inh	CtBP-E1A inh	D2 agonist	PINK1 expr mod	D2 potentiator	Six1-Eya2 inh
CN1C(=O)c2cccc3c(N(C)C)ccc(c23)C1=O	-9	7%	.	-5.1	-1.9%	-16	10
O=C(NCCCN1CCOCC1)c1sc2cc(F)ccc2c1Cl	-14	10%	0	-3.4	-0.8%	-12	2
COc1ccc(CNc2nc(-c3cccnc3)nn2C(=O)c2ccco2)cc1	-8	?	-11	0.4	0.2%	-1	0
Cc1ccc(C(C)C)c(OCc2nn(CC(=O)c3ccc(Cl)cc3)c3[n+]2CCCCC3)c1	6	32µM*	0	-12	-1.3%	-23	0

(cont.)
SMILES	TRPV1 PAM	Sfp PPTase inh	CtBP-E1A inh	D2 agonist	PINK1 expr mod	D2 potentiator	Six1-Eya2 inh
CC(C)NC(=S)NC1(C)CCS(=O)(=O)C1 (stereo not given)	21	6%	10	3.4	-1.5%	-15	16
O=C(COC(=O)Cc1c[nH]c2ccccc12)Nc1ccc(Cl)cc1	.	.	5	-0.6	-1.7%	-7	4
O=C(N/C(=C\c1ccc(Cl)cc1)C(=O)N1CCOCC1)c1ccc([N+](=O)[O-])cc1	7	-4%	-9	0.0	2.5%	-9	-2
C=CCOc1cccc(C2C(C(=O)c3cccs3)=C(O)C(=O)N2Cc2cccnc2)c1 (stereo not given)	1	20%	9	-4.2	1.5%	4	-17
O=C(N/N=C/C1CCCCC1)c1ccccn1	-21	3%	-19	-0.6	0.8%	7	-19
CCOC(=O)c1cn2nc(Oc3ccc(C#N)cc3)ccc2n1	4	3%	-12	-2.5	0.2%	6	14
OCc1ccc(OCCCOc2cccc3cccnc23)cc1	9	7%	-8	-5.5	-0.6%	-2	-1
COc1cc(/C=N/N2C(=O)C3C4C=CC(CC4)C3C2=O)ccc1O (stereo not given)	4	6%	-15	-0.9	-3.1%	-4	-3
Cc1ccc2c(c1)nnc1nnc(SCC(=O)O)n12	8	-14%	-22	-3.9	0.3%	-7	-22
Cc1ccc(Cl)c2c(N=Nc3ccccc3)c(O)[nH]c12	23	21%	.	-0.7	?	-27	4
CCNC(=O)C1(C)CCN(C(=O)CCc2ccccc2)C1 (stereo not given)	.	.	7	-4.3	0.2%	0	5
COP(=O)(OC)C(Nc1ccc([N+](=O)[O-])cc1)c1ccccc1 (stereo not given)	3	14%	-6	-0.9	1.5%	-1	-3
CC(=O)c1cnc2ncnn2c1C	6	19%	0	-2.7	-0.4%	-27	18
Cc1ccc(NC(=O)CSc2nnc(CNC(=O)C34CC5CC(CC(C5)C3)C4)n2-c2ccc(F)cc2)cc1	12	20%	-5	-0.8	4.3%	-22	-12
COc1ccc(C(=O)O)cc1NS(=O)(=O)c1cccc2nsnc12	0	-9%	-1	-1.6	-0.9%	-2	-4
Cc1[nH]c2ccccc2c1C1=CC(=O)C=CC1=O	.	.	-2	?	12%	-8	-18
COc1ccc(/C=C/C(=O)c2cc(F)ccc2OC(=O)c2ccc(OC)c(OC)c2)cc1OC	13	0%	.	2.2	2.0%	-6	0
